Assay outcomes from PubChem BioAssay.
AID504770: growth inhibition of E. coli YBA685, primary screen, V. cholerae RctB inhibitors; E. coli YBA685 rctB-dependent plasmid, OD600 growth, 3 h; stronger effect = lower value; z-score (no concentration beside the values); actives 0.27% (n = 130,000);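 active = z-score under -2 on both plates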;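 also: wells of about 30 µL received 100 nL stock; score is relative to mean and SD of the test wells; the first replicate is given; strong numbers were not always called active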
CapD inh: Bacillus anthracis CapD inhibitors, primary screen, biochemical, fluorescence intensity; actives 0.23% (n = 140,000); AID 492967, 2010; purified CapD enzyme, fluorescence intensity read-out; stronger effect = lower value; some hits fall short of the stated cut; CapD gamma-glutamyltranspeptidase (Bacillus anthracis Ames Ancestor); z-score (test concentration not listed);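 active = z-score under -4 in either of two replicates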;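 also: stock transfer was 100 nL into about 40 µL; score is relative to mean and spread of the plate; one replicate is shown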
The depositor's hits bear a star; nt = not tested or not shown; & = joins results of further samples.

SMILES	AID504770	CapD inh
CC1CCN(C(=O)c2ccc3nc(N4C(=O)CCC4=O)sc3c2)CC1	-0.75	nt
COCCn1c(O)c(C(C)=NCC(C)(C)N2CCOCC2)c(=O)[nH]c1=S	0.45	nt
CN(C1CCCCC1)S(=O)(=O)c1ccc(N)cc1	-0.75	0.3
COc1c(Cl)cc(Cl)cc1C(Nc1cccc2ccccc12)P1(=O)OCC(C)(C)CO1 (stereo not given)	nt	1.8
Cc1noc2nc(-c3cccs3)cc(C(=O)NNC3=NCCCCC3)c12	0.5	nt
O=c1c(C/C=C/c2ccccc2)c(O)ccn1Cc1ccc(Cl)cc1Cl	nt	-0.96
COc1ccc(OC)c(NC(=O)c2ccc3c(=O)n(-c4cc(OC)ccc4OC)c(=S)[nH]c3c2)c1	nt	-0.62
Cc1cc(=O)oc2cc(OC(C)C(=O)NC3CCCCCC3)ccc12 (stereo not given)	2.3	68
O=C(c1ccc(COc2ccc(F)cc2)o1)n1cccn1	-1	-0.39
Cc1ccc(C(=O)Nc2ccc(-c3nnc4n3CCCCC4)cc2)cc1	-1	-0.35
C=CCOc1ccc(C(C2=C(O)CC(C)(C)CC2=O)C2C(=O)CC(C)(C)CC2=O)cc1 (stereo not given)	nt	-0.48
CN(C)/C=C1\N=C(c2cccnc2Oc2ccc(Cl)cc2)OC1=O	-0.35	3.7
O=C(c1ccc(=O)[nH]n1)N1CCc2ccccc21	0.95	nt
CC(CN)(NS(=O)(=O)c1ccccc1)c1ccccc1 (stereo not given)	-0.45	nt
O=C(Nc1ccccc1C(F)(F)F)C1CCC1	-0.05	-0.39
COc1cc(C(F)(F)F)c(C(=O)N(C)Cc2cccc(Cl)c2)cn1	0.15	0.32
NS(=O)(=O)c1ccc(NC(=O)CC2SC(=O)NC2=O)cc1 (stereo not given)	-0.4	0.14
CC(=O)N1CC=C(c2c(C)[nH]c3ccccc23)CC1	0	1.7
O=C1Nc2ccccc2/C1=C\c1ccccc1N1CCN(Cc2ccccc2)CC1	-0.8	-1.2
CCCc1cc(NCC2CCCO2)n2c(nc3ccccc32)c1C#N (stereo not given)	0.05	nt
COc1ccc(S(=O)(=O)N2CCc3ccccc3C2)cc1OC	-0.25	0.26
O=S(=O)(NCC1(O)CCCCC1)c1ccc(Cl)cc1	nt	-0.27
N#Cc1ccsc1NC(=O)COc1ccc(-c2nnco2)cc1	-0.55	nt
COc1ccc(-c2csc(C(C#N)=C(SC)SC)n2)cc1	1.2	0.37
CN(C)c1ccc(/C=C2/SC(=O)N(CCN=C3NS(=O)(=O)c4ccccc43)C2=O)cc1	1.6	-0.61
OCCN1CCN(CC#CCC(c2ccccc2)c2ccccc2)CC1	0.3	-0.12
O=C(NC1CCCCCCC1)c1ccc(CNS(=O)(=O)c2ccc(F)cc2)cc1	-1.2	-0.045
O=C(CCC(=O)Nc1cccc2ccccc12)Nc1cccc2ccccc12	0.7	0.52
O=S(=O)(c1cccc2nsnc12)N1CCN(C/C=C/c2ccccc2)CC1	0	-0.14
Cc1cc(C(=O)COC(=O)c2ccc3c(c2)C(=O)N(Cc2ccco2)C3=O)c(C)n1C	-0.55	nt
O=C1/C(=C\c2ccc(Br)o2)CCC/C1=C\c1ccc(Br)o1	-0.75	-0.58
Cc1sc2nc(SCC(=O)NC3CCCCC3)[nH]c(=O)c2c1C	0.6	nt
Cc1ccc(-c2n[nH]c3c2C(c2ccccc2Cl)N(c2ccc(Cl)cc2)C3=O)cc1 (stereo not given)	-0.9	0.08
CN1C(=O)NC(=O)/C(=C/c2ccc(F)cc2)C1=O	0.65	0.62
CCOc1nc(SC)nc2sc3c(c12)CC(C)(C)OC3	-0.25	0.55
CC1=C(C(=O)OCc2ccc3c(c2)OCO3)C(c2cccc3ccccc23)NC(=O)N1 (stereo not given)	nt	1.2
C=CCc1cc(/C=C2\C(=O)NC(=S)N(c3cccc(OCC)c3)C2=O)cc(OCC)c1O	nt	-0.08
Cc1oc2cc(OCC(=O)O)ccc2c(=O)c1-c1ccc(Br)cc1	-0.4	-1.3
O=C(COC(=O)C1CCN(S(=O)(=O)c2ccc3c(c2)OCCO3)CC1)Nc1cc(C(F)(F)F)ccc1Cl	1.4	nt
Clc1ccccc1-c1nc(-c2ccncc2)ncc1-c1ccncn1	nt	-0.69
Cc1cccc(N2C(=O)c3cccc4c(N5CCNCC5)ccc(c34)C2=O)c1	-0.9	nt
O=C(Nc1cccnc1)c1cc(-c2ccccc2Cl)nc2ccccc12	nt	-0.1
Cc1cnc(C(=O)OCc2ccc(Br)cc2)cn1	-0.2	nt
OCCCNc1nnc(-c2ccccc2)c2ccccc12	0.4	nt
CCOC(=O)N1CCN(C(=O)CCCn2c(=S)[nH]c3ccc(Br)cc3c2=O)CC1	-0.1	0.64
CC1CCCCC12NC(=S)N(c1ccccc1)N2 (stereo not given)	nt	-0.29
CC(C)COC1C(=O)CCCC1CC(=O)O (stereo not given)	-0.6	0.27
COc1ccc(OC)c(-n2c(SCC(=O)Nc3ccccc3C(F)(F)F)nc3c(c2=O)SCC3)c1	nt	-0.18
COc1ccc(S(=O)(=O)N(C)S(=O)(=O)c2ccc3ccccc3c2)cc1	0.3	nt
CN(C)CCCN1CNC(=S)NC1	2.5	nt
(continued)
SMILES	AID504770	CapD inh
Cc1nc2sccn2c1C(=O)c1ccccc1	0.05	-1.9
O=C(CN1CCN(c2ccccc2F)CC1)Nc1nnc(C(F)(F)F)s1	nt	0.22
Cc1cccc(NC(=O)c2ccccc2)c1C(=O)O	-0.1	0.64
CC(=O)Oc1cccc(-c2nc(C(N)=O)c(N)o2)c1	-0.4	nt
CC1=NN(c2ccc(Cl)cc2)C(=O)C12Cc1c(C)nn(-c3ccccc3)c1N1CCCC12 (stereo not given)	0.7	nt
CCOC(=O)Cc1ccc2sc(-c3ccccc3)nc2c1	0.5	0.15
Cc1cc(N2CCCCC2)n2c(nc3ccccc32)c1C#N	nt	0.4
O=C(N/N=C/c1cccc(C(F)(F)F)c1F)c1ccc(C(F)(F)F)cc1	nt	0.3
COc1cccc(C(C)NS(=O)(=O)c2ccc(Br)cc2)c1 (stereo not given)	nt	-0.01
Cc1noc(C)c1CSc1cc(C)c2ccccc2n1	-0.1	nt
Cn1[nH]c(=O)cc1C(F)(F)F	nt	0.38
CCOC(=O)c1nnn(-c2nonc2N)c1-c1ccccc1	-0.55	nt
Clc1ccc(CC(Cc2nc3ccccc3[nH]2)c2nc3ccccc3[nH]2)cc1 (stereo not given)	nt	-0.01
COc1ccc(C/C(C)=N/NC(N)=O)cc1OC	-0.6	0.1
COCC(C)NCc1ccc2ccccc2c1 (stereo not given)	-1.8	0.46
CCOC(=O)C1=C(N)OC2=C(C(=O)CCC2)C1c1cccnc1 (stereo not given)	1.2	nt
CC(=O)Nc1ccc(Oc2cc(C#N)c(C#N)cc2N2CCOCC2)cc1	-0.05	-1.4
O=c1ccnc(SCc2ccc(Cl)cc2)[nH]1	-0.55&-0.65	0.95&-0.055
COC(=O)c1ccccc1NC(=O)c1sc2ncn(CC(=O)Nc3ccc(C)c(Cl)c3)c(=O)c2c1C	nt	0.54
CC(=O)OC1=CC(=O)CC(c2ccc(Cl)cc2)C1 (stereo not given)	-0.5	-3.1
CC(C)(C)c1cc(C(F)(F)F)c(C#N)c(SCC#N)n1	-0.3	0.79
O=C(CCCc1nc(-c2ccccc2)no1)Nc1cccnc1	2.4	-0.96
Cc1ccc(-c2cc(C(=O)NCCN(C)C)c3cc(Br)ccc3n2)o1	2.5	1.2
CCCN(c1nc(C)c(Cl)c(OC)n1)S(=O)(=O)c1ccc(C)cc1	nt	-0.42
CC1=C(C#N)C(=O)NC(=O)/C1=C/c1ccc(-c2cccc(C(=O)O)c2)o1	1.1	3.3
CC(C)(C)c1ccccc1OCCCCCn1ccnc1	0.15	nt
Cc1ccc(NC(=O)Cn2c3ccccc3c(=O)c3cc([N+](=O)[O-])ccc32)cc1F	nt	1
CN(C)/C=C(\C#N)c1ccccn1	-1.2	-3.7
COc1ccc(CNC(C)c2ccccc2)cc1 (stereo not given)	0.1	0.11
N#Cc1ccc(S(=O)(=O)NCCOCCO)cc1	nt	-0.03
CC1CC(C)CN(S(=O)(=O)c2ccc3c(c2)Cc2cc(S(=O)(=O)N4CC(C)CC(C)C4)ccc2-3)C1 (stereo not given)	nt	0.28
O=C(OCc1ccccc1F)c1ccc(O)cc1	-0.25	-0.21
Cc1ccc(SCC(=O)Nc2ccc(F)c(F)c2F)cc1	nt	0.42
Fc1ccc(Nc2nc3nonc3nc2Nc2ccc(F)cc2F)c(F)c1	nt	-1.2
COc1ccc(CN2CC(C(=O)NCCCN3CCC(C)CC3)CC2=O)cc1 (stereo not given)	1.5	0.09
CCOC(=O)c1cc2c(c(CSc3ccc(C(F)(F)F)cn3)c1)OCOC2	-0.8	-0.09
CCc1nn2c(=O)cc(COc3ccc(/C=C4\C(=O)NN(c5ccccc5)C4=O)cc3)nc2s1	0.3	-1.7
O=C1CCCC2=C1C(c1cccc(Cl)c1)n1c(nc3ccccc31)N2 (stereo not given)	-0.45	1.1
CC(C)(C)OC(=O)N1CCN(C(=O)OC(C)(C)C)CC1	0.8	nt
CN(Cc1cccs1)C(=O)CN1C(=O)C2CC=CCC2C1=O (stereo not given)	0.55	nt
O=C(Nc1ccc2[nH]c(=O)[nH]c2c1)c1ccc2c(=O)n3c(nc2c1)CCCCC3	0.4	nt
COc1ccccc1NC(=O)[C@H](Cc1ccccc1)N1Cc2ccccc2C1=O	1.2	0.07
Cc1nnc(SCC(=O)Nc2ccc(C#N)c(Cl)c2)n1N	0.95	nt
Cc1cc(-n2c(C)cc(C(=O)CSCc3ccccc3F)c2C)no1	-0.65	nt
CCOC(=O)c1cc(-c2ccccc2)on1	-0.25	-0.4
C=CCn1c(C)cc(C(=O)CN2C(=O)NC(CCSC)C2=O)c1C (stereo not given)	0.65	nt
CS(=O)(=O)c1ccc(COc2ccc(-c3ncc(S(C)(=O)=O)c(-c4cccc(C(F)(F)F)c4)n3)cc2)cc1	nt	-0.51
FC(F)(F)c1cc(-c2nsc(N3CCOCC3)n2)cc(C(F)(F)F)c1	-0.6	0.65
Cc1cc(C)c2oc(-c3cc(NC(=O)COc4ccccc4C)ccc3Cl)nc2c1	-0.65	-1.5
C=CCOc1nnc(OCC=C)c2ccccc12	-0.1	0.48
(more compounds)
SMILES	AID504770	CapD inh
CC(=O)NC1C(OC(C)C)OC(COC(C)=O)C(OC(C)=O)C1OC(C)=O (stereo not given)	nt	-0.1
COc1ccc(N2CCN(S(=O)(=O)c3cc(F)c(Br)cc3F)CC2C)cc1 (stereo not given)	nt	-0.12
CC(C)(C)OC(=O)/C(C#N)=C/C1CCCCC1	-0.6	0.3
O=C1C2C3c4ccccc4C(CO)(c4ccccc43)C2C(=O)N1c1ccc([N+](=O)[O-])cc1 (stereo not given)	nt	0.3
Cc1ccc(Cl)cc1N1C(=O)C(N2C(=O)c3ccccc3C2=O)C1c1ccc(F)cc1 (stereo not given)	nt	0.26
O=C(NN1C(=O)C2C3C=CC(CC3)C2C1=O)c1ccccc1NC(=O)c1c(F)cccc1F (stereo not given)	nt	1.4
Cc1ccc(SC(CC(=O)c2ccc(C)cc2)C(=O)O)cc1 (stereo not given)	-0.3	-1.1
Cc1ccc(-c2nc(SC3CC(=O)N(c4ccccc4)C3=O)n[nH]2)cc1 (stereo not given)	-1.5	-0.72
CCNS(=O)(=O)c1cc(-c2nnc(OC)c3ccccc23)ccc1C	-0.35	9.2
CCOC(=O)c1cnn(-c2ccc(N)cc2)c1C(F)(F)F	nt	-0.7

6 structures out of the list, arranged by molar mass, smallest number first.
SMILES	AID504770	CapD inh
CCOC(=O)c1cnn(-c2ccc(N)cc2)c1C(F)(F)F	nt	-0.7
Cc1ccc(SC(CC(=O)c2ccc(C)cc2)C(=O)O)cc1 (stereo not given)	-0.3	-1.1
CC(=O)NC1C(OC(C)C)OC(COC(C)=O)C(OC(C)=O)C1OC(C)=O (stereo not given)	nt	-0.1
Cc1ccc(Cl)cc1N1C(=O)C(N2C(=O)c3ccccc3C2=O)C1c1ccc(F)cc1 (stereo not given)	nt	0.26
O=C(NN1C(=O)C2C3C=CC(CC3)C2C1=O)c1ccccc1NC(=O)c1c(F)cccc1F (stereo not given)	nt	1.4
COc1ccc(N2CCN(S(=O)(=O)c3cc(F)c(Br)cc3F)CC2C)cc1 (stereo not given)	nt	-0.12

Later entries.
SMILES	AID504770	CapD inh
C(=N\n1cnnc1)/c1cccc(/C=N/n2cnnc2)c1	-0.25	-0.24
CCCSc1nnc2c(n1)OC(c1cccs1)Nc1ccccc1-2 (stereo not given)	nt	-0.23
O=S(=O)(CC(O)c1ccc(Cl)c(Cl)c1)c1ccc(Cl)cc1 (stereo not given)	nt	-0.21
COc1ccc(CCN(C)S(=O)(=O)c2cn(C)c(=O)n(C)c2=O)cc1OC	-0.1	nt
CCCNC(=O)c1cc(CC(C)C)on1	0.3	0.49
O=C(Nc1ccccc1C(=O)N1CCN(c2ccccc2)CC1)c1cccc(S(=O)(=O)N2CCCC2)c1	nt	-1.2
Cc1nc(C(F)(F)F)ccc1C(=O)N1CCSCC1	-0.4	0.56
CCC(C#N)(c1ccccc1)c1ccc(N=Cc2cc(Cl)cc(Cl)c2O)cc1 (stereo not given)	nt	0.025

Single entries from the entries so far.
AID504770, `COc1ccc(CCN(C)S(=O)(=O)c2cn(C)c(=O)n(C)c2=O)cc1OC` stands at -0.1
CapD inh, `Cc1nc(C(F)(F)F)ccc1C(=O)N1CCSCC1` stands at 0.56
CapD inh, `CCC(C#N)(c1ccccc1)c1ccc(N=Cc2cc(Cl)cc(Cl)c2O)cc1` (stereo not given) stands at 0.025
CapD inh, `CCCSc1nnc2c(n1)OC(c1cccs1)Nc1ccccc1-2` (stereo not given) stands at -0.23

Entries of single compounds, looked up by structure. Screens in order: AID504770, CapD inh
Results for CCCNC(=O)c1cc(CC(C)C)on1 → 0.3, 0.49
Results for O=C(Nc1ccccc1C(=O)N1CCN(c2ccccc2)CC1)c1cccc(S(=O)(=O)N2CCCC2)c1 → nt, -1.2
